# NPR1 antag: antagonists of human natriuretic peptide receptor Npr1; Potency, µM (highest dose often 46.3 µM), inactives show top-dose activity change, negative = inhibition, most hits filed as inhibitors; AID 1347048; HEK293 hNpr1 GloSensor cGMP, ANP-stimulated luminescence; P16066; 1.6% of 76,000 active; active = well fitted inhibition curve with a large enough effect; inconclusive = small, poorly fitted or top-dose-only effect; inactive = no such curve, though single readings can be large or run the other way;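 further: nearly all actives have a fitted effect of over 60% in size; nearly all hits also lower the signal before the agonist is added; a reference antagonist and vehicle were the controls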
# Target sequence (P16066 whole entry, looked up): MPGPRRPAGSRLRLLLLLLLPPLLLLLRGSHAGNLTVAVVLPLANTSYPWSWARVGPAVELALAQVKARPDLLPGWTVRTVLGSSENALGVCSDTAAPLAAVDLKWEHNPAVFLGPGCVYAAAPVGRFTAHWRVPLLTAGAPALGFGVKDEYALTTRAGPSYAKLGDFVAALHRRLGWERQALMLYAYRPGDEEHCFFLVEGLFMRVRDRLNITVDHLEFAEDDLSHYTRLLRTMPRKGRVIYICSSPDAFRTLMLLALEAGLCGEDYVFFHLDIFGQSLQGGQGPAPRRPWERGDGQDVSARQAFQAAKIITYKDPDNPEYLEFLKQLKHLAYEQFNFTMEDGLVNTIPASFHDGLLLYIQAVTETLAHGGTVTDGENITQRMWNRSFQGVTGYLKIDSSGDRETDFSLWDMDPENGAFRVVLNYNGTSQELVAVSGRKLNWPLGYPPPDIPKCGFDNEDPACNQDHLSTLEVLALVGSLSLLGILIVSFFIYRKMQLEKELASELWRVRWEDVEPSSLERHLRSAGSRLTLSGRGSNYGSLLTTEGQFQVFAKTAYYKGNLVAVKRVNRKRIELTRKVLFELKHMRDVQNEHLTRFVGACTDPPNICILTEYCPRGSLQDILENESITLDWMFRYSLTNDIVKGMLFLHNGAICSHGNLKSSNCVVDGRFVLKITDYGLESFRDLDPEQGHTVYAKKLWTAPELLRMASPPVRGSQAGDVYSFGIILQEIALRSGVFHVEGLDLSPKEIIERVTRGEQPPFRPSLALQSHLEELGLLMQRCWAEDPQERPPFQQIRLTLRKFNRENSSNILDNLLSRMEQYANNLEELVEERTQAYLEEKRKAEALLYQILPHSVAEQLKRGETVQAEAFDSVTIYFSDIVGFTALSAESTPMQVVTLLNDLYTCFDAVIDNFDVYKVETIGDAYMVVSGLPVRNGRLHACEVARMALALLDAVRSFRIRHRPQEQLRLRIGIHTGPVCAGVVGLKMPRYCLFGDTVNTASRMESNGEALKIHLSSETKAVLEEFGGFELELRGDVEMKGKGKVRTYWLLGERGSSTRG
#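 Compound pre-incubated 30 min at room temperature on GloSensor-loaded HEK293 cells stably carrying hNpr1 and the pGS-40F cGMP biosensor. Stimulation uses hNppA at 0.1 nM final; luminescence is taken at baseline and 20 min post-agonist.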
# * = called active by the depositor; ? = inconclusive; [ ] = remark or other dose. On the % scale 0 is the no-effect control and ±100 the full control effect; potency means the concentration at half of the fitted maximal effect. Only part of the results is shown (hit frequency here may not be typical).
SMILES,NPR1 antag
COc1cc(Cl)ccc1C(=O)N1[C@@H]2CC[C@H]1CC(NC(=O)c1ccncc1)C2 (stereo partly specified),-1%
Cc1cnc(CC2CCN(S(=O)(=O)c3ccc(C#N)cc3)C2)n1C1CC1 (stereo unspecified),4%
CCN1C(=O)CCC2(C(=O)NCc3c(C)n[nH]c3C)CCCC=C12 (stereo unspecified),2%
CC1CCC(NC(=O)c2ccc(CN3C(=O)NC4(CCS(=O)(=O)CC4)C3=O)cc2)CC1 (stereo unspecified),2%
CN(C)C(=O)N1CCc2nc(-c3ccc(Cl)cc3)nc(-c3ccccc3)c2C1,13%
CCc1cc(C(=O)N2CCC3(CCC(=O)N(CCc4cnc[nH]4)C3)CC2)cs1,7%
Cc1cccc(CN2CCc3c(n(Cc4cccnc4)n(CCc4ccccc4)c3=O)C2)n1,-1%
Cc1nc(-c2ccc(C(C)N3CCCCC3)cc2)c(C#N)cc1C(=O)O (stereo unspecified),6%
Cc1cccc(C)c1C(=O)NC1CC(=O)N(Cc2cccc(F)c2)C1 (stereo unspecified),2%
Cn1nc(C2CCN(C(=O)Cc3ccccc3)CC2)c2c1CCOC2,4%
COCc1nc(C2CCN(C(=O)c3ccoc3)C2)no1 (stereo unspecified),0%
O=C(c1cnccn1)N1CCCC1c1nc(C2CCOCC2)no1 (stereo unspecified),6%
Cc1ccc(C(=O)N2CCN(c3cc(C(F)(F)F)nc(C)n3)CC2)cc1,4%
COc1cccc(-c2cc(-c3ccncc3)c3cncn3c2)c1OC,-4%[70.6 µM]
O=c1[nH]c(C2CCCN([S+](=O)([O-])c3cccc(C(F)(F)F)c3)C2)nn1-c1cccc(Cl)c1 (stereo unspecified),-9%
O=C1c2c(nc(COc3cccc(Cl)c3)n2Cc2ccccc2)NCCN1CC1CC1,-15%[70.6 µM]
Cn1cnc(C(=O)N2[C@@H]3CC[C@H]2CC(NC(=O)c2ccc(F)cc2)C3)c1 (stereo partly specified),0%
Cn1cc(CN2C[C@@H]3C[C@H](C2)c2ccc(NS(=O)(=O)c4cccc(F)c4)c(=O)n2C3)c2ccccc21,-23%
CCCc1noc(-c2ccn3c(CNC(=O)Cc4ccccc4Cl)nnc3c2)n1,4%
COc1ccc(C(=O)Nc2ccc(-c3nnc4n3CCCC4)cc2)cc1,-8%
COCCN1C(=O)CCc2cc(NC(=O)c3ccc(F)cc3)ccc21,-2%
OC(c1cccc(C(F)(F)F)c1)c1nc(Nc2ccc(N3CCOCC3)cc2)n[nH]1 (stereo unspecified),?
COCCNC(=O)CCCN1C(=O)COc2ccc(C(=O)COc3ccc(F)c(Cl)c3)cc21,-3%
c1ccc2c(Cc3nnc([C@H]4CCN(C5CCCCC5)C4)o3)c[nH]c2c1,-3%[70.6 µM]

# Reformatted: results already given
NPR1 antag	Structure
?	OC(c1cccc(C(F)(F)F)c1)c1nc(Nc2ccc(N3CCOCC3)cc2)n[nH]1 (stereo unspecified)
-3%	COCCNC(=O)CCCN1C(=O)COc2ccc(C(=O)COc3ccc(F)c(Cl)c3)cc21

# Further structures
SMILES,NPR1 antag
CNC(=O)c1cnc2c(c1)N(C(=O)Cc1ccc(C(C)C)cc1)CCC2,-15%[70.6 µM]
C[C@H]1[C@@H]2[C@@H](O)C([C@H](C)C(=O)NCc3ccccc3)CC[C@@]2(C)CC[C@@H]1NC(=O)c1ccc(C#N)cc1 (stereo partly specified),1%
Cc1cc2nc3n(c(=O)c2n1CC(=O)Nc1cccc(C#N)c1)CCC3,0%
COc1ccccc1OCCNC(=O)C1CCCN(C(=O)c2ccccc2)CCC(=O)NCC1 (stereo unspecified),5%
COc1ccc(-c2cc(N3CCC(NC(=O)c4ccccc4C)C3)n[nH]2)cc1 (stereo unspecified),3%
Cc1ccc(CN2CCC(C3CCN(S(C)(=O)=O)CC3)C2)o1 (stereo unspecified),-2%
COc1ccc(NC(=O)C2(Cc3ccccc3)CCCCC(=O)N2)c(OC)c1 (stereo unspecified),0%
CCC1=C(C(=O)OC)C(c2ccccc2)N2C(CC(=O)NCc3cccc(F)c3)=CSC2=N1 (stereo unspecified),-16%
COC[C@@H]1[C@H](NC(=O)c2ccc(-n3cccn3)cc2)[C@@H]2CCO[C@H]12,12%
COc1cccc(C(=O)N2CCC(N3C[C@H](O)C[C@H]3C(=O)NCc3ccc(C)o3)CC2)c1,7%
O=C(O)c1ccc2c(c1)N(C(=O)c1ccc(F)cc1)CC2,2%
CS(=O)(=O)Nc1ccc(C2(C(=O)N3CCN(c4ccccn4)CC3)CCCCC2)cc1,-1%

# Among those listed so far, 6 have an NH in an aromatic ring.
SMILES,NPR1 antag
CCN1C(=O)CCC2(C(=O)NCc3c(C)n[nH]c3C)CCCC=C12 (stereo unspecified),2%
CCc1cc(C(=O)N2CCC3(CCC(=O)N(CCc4cnc[nH]4)C3)CC2)cs1,7%
O=c1[nH]c(C2CCCN([S+](=O)([O-])c3cccc(C(F)(F)F)c3)C2)nn1-c1cccc(Cl)c1 (stereo unspecified),-9%
OC(c1cccc(C(F)(F)F)c1)c1nc(Nc2ccc(N3CCOCC3)cc2)n[nH]1 (stereo unspecified),?
c1ccc2c(Cc3nnc([C@H]4CCN(C5CCCCC5)C4)o3)c[nH]c2c1,-3%[70.6 µM]
COc1ccc(-c2cc(N3CCC(NC(=O)c4ccccc4C)C3)n[nH]2)cc1 (stereo unspecified),3%

# The listing continues.
SMILES,NPR1 antag
COc1ccc(-n2nc(C3CCN(Cc4ccncc4)CC3)[nH]c2=O)cc1,0%
CN1C(=O)Cc2cc(S(=O)(=O)Nc3cccn4nc(C5CC5)nc34)ccc21,6%
COCCc1noc([C@@H]2CC(F)(F)CN2C(=O)c2cc(C)no2)n1,0%
COc1ccc(C(=O)N2CCCCCNC(=O)[C@H]3C[C@H](C(=O)N4CCc5ccccc5C4)C[C@H]32)cn1,0%
C=CCOc1cccc(-c2nnc(CCC(=O)NCc3ccc(F)cc3)c(=O)[nH]2)c1,-6%
Cn1cccc1CN1CCC2(CC1)CC(=O)c1ccccc1O2,-28%[70.6 µM]
O=C1NC2(CCN([S+](=O)([O-])c3ccccc3)C2)OCc2ccccc21 (stereo unspecified),-3%
Cc1cccc(C(=O)N2C(C(=O)NCC(C)C)COC23CCN(C(=O)c2ccccc2C)CC3)c1 (stereo unspecified),0%
C[S+](=O)([O-])N1CCCC2(C1)C(=NC1CCCC1)NC(=O)N2c1cc(F)cc(F)c1 (stereo unspecified),0%
CCc1nc(C)c(C(=O)N2CCC(c3[nH]ncc3-c3ccccc3C)CC2)o1,?
O=C(c1ccc(F)c(Cl)c1)N1CCC(c2n[nH]c(=O)n2-c2ccccc2)CC1,0%
O=C(Nc1ccc([C@@H](O)[C@H]2COCC(=O)N2CC2CCCCC2)cc1)C1CCC1,1%[70.6 µM]
CCn1cc(-c2ccccc2)cc1C(=O)O,-3%
CS(=O)(=O)N1CCN(C(=O)Cn2nc3c(cc2=O)CCCC3)CC1,-1%
Cc1ccccc1-c1cc(C(=O)NCc2cccnc2)c2c(c1)N(C)CCO2,?
CC(C)CCCC1CN(C(=O)c2cn(C3CCC(N)CC3)nn2)CCO1 (stereo unspecified),0%
COC[C@@H]1CN(C(=O)CCc2cccc(OC)c2)C[C@H]1c1nc(C)no1,4%
Cc1noc(C)c1CN1CCC2(CC1)CC(c1ccccc1)C(=O)N2C (stereo unspecified),1%
COc1ccc(C(=O)N2CCC3(CC2)NC(=O)N(c2ccccc2)N3)cc1F,5%
CCCN1C(CC(C)C)=NS(=O)(=O)c2cc(NC(=O)C(C)C)ccc21,-12%
C[C@@H]1CN(C(=O)c2ccc(Cn3cnnn3)cc2)CC[C@@]1(O)C1CCOCC1,2%
COc1ccc(NC(=O)N2CC(Oc3ccc(-c4nc(-c5ccccc5)no4)cc3)C2)cc1,-29%
O=C1CO[C@H]2CN(c3ncccn3)C[C@H]2N1Cc1ccccc1,0%[70.6 µM]
COC[C@@H]1CN(C(=O)c2ccccn2)C[C@H]1c1ccccn1,-1%
CC1CCC2(CC1)NC(=O)N(CC(=O)NCc1ccc(F)cc1)C2=O (stereo unspecified),3%
CC1(c2ccccc2)N(Cc2cccnc2)C(=O)OC12CCN(Cc1ccccc1Cl)CC2 (stereo unspecified),-22%
COc1ccccc1CCC(=O)N[C@@H]1CN(c2ccncn2)C[C@H]1CO,-4%
CC(C)CCNC(=O)c1cnc2n1CCN(Cc1ccc3c(c1)CCO3)CC2,-12%[70.6 µM]
O=C(c1ccc2cc[nH]c2c1)N1CCCN(c2cc(-c3ccc(F)cc3)[nH]n2)CC1,?
Cc1ccc(CC(=O)N2CCC3(C2)C(=O)N(C)c2ccccc23)cc1 (stereo unspecified),-2%
O=C1CC(c2noc(-c3cccc(F)c3)n2)CN1c1ccc(F)c(Cl)c1 (stereo unspecified),-1%
Cc1[nH]c2c(c1C(=O)N1CCCC(CCc3ccc(F)cc3)C1)C(=O)CCC2 (stereo unspecified),?
CNC(=O)N1CCC(C2CCN(C(=O)Cc3ccccc3)C2)CC1 (stereo unspecified),2%
Cn1nc(-c2nc(C3CCOC3)no2)cc1-c1ccccc1 (stereo unspecified),?
COC(=O)[C@@H](C)NC(=O)[C@H]1CN(C(=O)c2cccnc2)CCN1S(=O)(=O)c1ccccc1,0%
CN(CCC(O)c1ccccc1)Cc1cn(-c2ccccc2)nn1 (stereo unspecified),1%

# A few values from the results shown:
# NPR1 antag, `CC(C)CCNC(=O)c1cnc2n1CCN(Cc1ccc3c(c1)CCO3)CC2` → -12%[70.6 µM]
# NPR1 antag, `Cc1ccc(CC(=O)N2CCC3(C2)C(=O)N(C)c2ccccc23)cc1` (stereo unspecified) → -2%
# NPR1 antag, `CNC(=O)N1CCC(C2CCN(C(=O)Cc3ccccc3)C2)CC1` (stereo unspecified) → 2%

# Random excerpt: two compounds from above, in no set order.
SMILES,NPR1 antag
O=C1CC(c2noc(-c3cccc(F)c3)n2)CN1c1ccc(F)c(Cl)c1 (stereo unspecified),-1%
Cc1[nH]c2c(c1C(=O)N1CCCC(CCc3ccc(F)cc3)C1)C(=O)CCC2 (stereo unspecified),?

# (next part)
SMILES,NPR1 antag
Cc1cc(C(=O)N2CCC3(CC2)CC(C(=O)N2CCOCC2)N(C)C3)nn1C (stereo unspecified),3%
CN(Cc1ccc(C#N)cc1)Cc1cccc2cnccc12,-23%
Cn1c(CN(CCN2CCCCC2)CC2CCCN(C3CCCC3)C2)nc2ccccc21 (stereo unspecified),4%
O=C(Cn1nc2n(c1=O)CCCC2)NCCC1=CCCCC1,-12%
Cc1ccc(NC(=O)N2CCC[C@H]2C(=O)N2CCCCCCNC(=O)CC2)cc1C,0%
O=C(O)C[C@@H]1CCN(C(=O)Nc2ccc(C(F)(F)F)cc2)C[C@@H]1CCN1C[C@@H]2C[C@H](C1)c1cccc(=O)n1C2,-1%
Cc1nc([C@@H]2CN(C(=O)c3nccc4ccccc34)C[C@H]2C(N)=O)n[nH]1,3%
CN(C)[C@@H](Cc1ccccc1)C(=O)N1CCC(N2CCC(O)CC2)CC1,3%
COCc1ccc2c(c1)c(OC(C)(C)C(=O)N1CCN(CCO)CC1)nn2Cc1ccccc1,-12%
C#CCNC(=O)[C@@H]1Cc2cn(Cc3cc(C)on3)c3cccc(c23)[C@H](CC(C)C)N1,8%[70.6 µM]
CC(=O)N1CCN(Cc2ccc(F)c(C(F)(F)F)c2)CC(O)C1 (stereo unspecified),10%
COc1cccc(CC(=O)N2CCCCCNC(=O)[C@@H]3CCCC[C@@H]32)c1,0%
C#CCN(C)Cc1nc(C2(O)CCN(C)CC2)cs1,1%[70.6 µM]
O=C1CCCCC(C(=O)NCc2ccc(Cl)cc2)N1 (stereo unspecified),8%
O=C1NC[C@@H](CCC(=O)N2CCc3ccccc32)N2C[C@@H](NCc3ccc(CO)o3)C[C@@H]12,-10%
O=C(c1cccs1)N1CC[C@H](c2nnc(-c3ccc(Cl)cc3)o2)C1,-10%[70.6 µM]
COc1cccc(NC(=O)c2ccnc(-c3nnc4ccc(N5CCN(C)CC5)nn34)c2)c1,-4%
O=C1c2c(nc(CNc3cccc(F)c3)n2Cc2ccccc2)NCCN1CCN1CCOCC1,-2%
O=C(Cc1ccc2c(c1)OCO2)N1CCOCC2(CN(Cc3ccccc3)C2)C1,1%[70.6 µM]
CCOCC(=O)NC1CCN(c2cnn(CC)c(=O)c2)CC1,11%
COc1ccc(-c2ccc3nnc(CNC(=O)c4ccc(C)c(C)c4)n3n2)cc1,2%
Cc1cn2nc(C(=O)N3CCN(C(=O)c4ccc(C)s4)CC3)cc2c(=O)[nH]1,-3%
Cc1cc(OCC(=O)c2ccc3c(c2)N(CCCC(=O)NCC2CC2)C(=O)CO3)ccc1Cl,3%
O=C(c1ccc(N2CCOCC2)nc1)N1CCCC(c2ccccc2)CC1 (stereo unspecified),-1%
Cc1c(C(C)NC(=O)CCN2CCCCCC2=O)cnn1-c1cccc(F)c1 (stereo unspecified),-9%
CN1CCc2c([nH]c3ccccc23)C12CCN(C(=O)c1ccc3ccccc3n1)CC2,2%
CN1C[C@H](O)C[C@H]1c1nnc2n1CCN(C(=O)c1ccsc1)CC2,3%
CCN(CC)C(=O)[C@@H]1C[C@@H](n2cc(Cn3c(C)nc4ccccc43)nn2)CN1,4%
O=C(CC[C@H]1NC(=O)c2ccccc2NC1=O)NC1CCN(Cc2ccc(F)cc2)CC1,-1%
Cc1noc(-c2ccn3c(CNC(=O)c4cccc(Cl)c4)nnc3c2)n1,-6%
O=C(Cn1nc2n(c1=O)CCCCC2)NCCC1=CCCCC1,-1%
